Source: PubChem
S aureus helic = S. aureus DNA helicase inhibition; purified S. aureus helicase, fluorescence unwinding assay; about half of the hits fall short of the stated cut; inhibition, %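 (tested at about 80 µM)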; 0.05% of 120,000 active; AID 485395;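 active means both duplicates at 50% or more, or one of them with a favoured structure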;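 further: 0% = mean of negative control wells and 100% = mean of positive control wells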
MgrA-DNA mod = modulators of Staphylococcus aureus MgrA DNA binding | fluorescence polarization | inhibition, %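 (about 10 µg/mL by stock and volumes)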 | 0.13% of 84,000 active;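 active means above 50% in either of two replicates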;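 further: 0% = protein plus DNA without compound and 100% = DNA alone without protein; higher means less MgrA bound to DNA so lower polarization; one replicate is shown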
Numbers without * were called inactive; nt = not tested or not shown. Some of the compounds tested (hit frequency here may not be typical).

smiles | MgrA-DNA mod | S aureus helic
COc1ccc(C2Nc3ccccc3C(=O)N2c2ccc(Cl)cc2)cc1Cn1nnc2ccccc21 (stereo not drawn) | 3.9 | nt
CCCc1cc(SCC(=O)O)n2c(nc3ccccc32)c1C#N | 5.8 | 3
CC(C)(C)NS(=O)(=O)CC12CCC(CC1=O)C2(C)C (stereo not drawn) | nt | -1
CCN(CC(=O)NCc1cccs1)Cc1cc(=O)oc2cc(O)ccc12 | nt | -6
COCCn1c(=O)[nH]c2cc(C(=O)O)ccc2c1=O | nt | 13
N#Cc1cn(-c2ccc(Cl)cc2)nc1C(=O)c1cccs1 | 1.8 | nt
Cn1c(=O)cc(N2CCCCC2)c2c(=O)n(-c3ccccc3)c(=O)n(-c3ccccc3)c21 | nt | -13
CCOC(=O)c1sc2sc(C(=O)OCC)c(CN(CC)CC)c2c1CN(CC)CC | 20 | 4
FC(F)(F)c1cccc(Oc2cnc3ccccc3n2)c1 | 1.3 | nt
CC/C(=N\NC(=O)C1CC1)c1cccc(Cl)c1 | nt | 2
Cc1nc2sccn2c(=O)c1S(=O)(=O)NCCC(C)C | 0.9 | 4
CC1(C)CC(=O)C2=C(C1)OC(N)=C(C#N)C2C#Cc1ccccc1 (stereo not drawn) | 38 | -6
O=C(/C=C/c1ccccc1)N1CCCCC1 | 2.4 | 3
CCCCN1C(C)=NC(C(F)(F)F)(C(F)(F)F)C2=C1CC(C)(C)CC2=O | -1.9 | -1
O=C(OCCSc1ccccn1)c1cccc(Cl)c1 | 0.8 | nt
Cc1ccc2[nH]c(=O)c(CN(C3CCCCC3)S(=O)(=O)c3ccccc3)cc2c1 | 0.3 | 7
CN(CCc1ccccn1)C(=O)c1cccc(C(F)(F)F)c1 | nt | 10
C/C(=N/O)c1ccn(S(=O)(=O)c2ccccc2)c1 | -0.4 | nt
O=C(COC(=O)CC1Sc2ccccc2NC1=O)NC1CC1 (stereo not drawn) | nt | 13
COc1ccc2c(c1)c1c3n2CCNC3CCC1 (stereo not drawn) | 0.1 | 4
CSc1ccc(S(=O)(=O)N2CCCCC2)cc1 | 0.2 | -11
CCN(N)c1nc(Cl)cc(C)c1C#N | -3.7 | 0
COC(=O)c1sc(-c2cccs2)cc1N | -2.2 | nt
O=c1oc2ccccc2cc1-c1ccc([N+](=O)[O-])cc1 | -2.1 | nt
O=C(C1CC1)n1nccc1-c1csc(-c2ccccc2)n1 | 1.0 | nt
O=C(NCCc1cccs1)C1CCN(Cc2cnn(-c3ccccc3)c2-n2cccc2)CC1 | nt | 28
Cc1cc(O)c(C(c2ccncc2)N2CCCCC2)c(=O)n1Cc1ccco1 (stereo not drawn) | nt | 13
O=C1C(c2ccccc2)C(c2ccco2)NC(c2ccco2)C1c1ccccc1 (stereo not drawn) | nt | 16
CCOC(=O)c1c(-c2ccccc2)oc2ccc(OCC)cc12 | 1.2 | 10
O=C(COc1ccc(Oc2ccccc2)cc1)NCc1cn2ccsc2n1 | nt | 2
Nc1nc(SC(C(=O)c2c[nH]c3ccccc23)c2ccccc2)n[nH]1 (stereo not drawn) | nt | -14
CC(=O)Nc1cc(C2CC2)[nH]n1 | -6.8 | nt
Cc1ccc(S(=O)(=O)N2CCC(C(=O)N3CCCC(C)C3)CC2)cc1 (stereo not drawn) | nt | -18
Cc1onc(-c2c(F)cccc2Cl)c1C(=O)NC(=S)NCc1cccnc1 | 1.5 | -10
O=C(Cc1ccc(Cl)cc1)Nc1ccc2[nH]c(=O)[nH]c2c1 | 0.0 | 8
COc1ccc(C)cc1NC(=O)C(Sc1nnnn1Cc1cccs1)c1ccccc1 (stereo not drawn) | nt | 3

3 entries already listed, arranged by length of the SMILES, lowest first:
smiles | MgrA-DNA mod | S aureus helic
CCOC(=O)c1c(-c2ccccc2)oc2ccc(OCC)cc12 | 1.2 | 10
O=C(Cc1ccc(Cl)cc1)Nc1ccc2[nH]c(=O)[nH]c2c1 | 0.0 | 8
O=C(NCCc1cccs1)C1CCN(Cc2cnn(-c3ccccc3)c2-n2cccc2)CC1 | nt | 28

Additional structures follow.
smiles | MgrA-DNA mod | S aureus helic
CCc1cc2ccccc2nc1SCC(=O)N1CCCC1 | 1.1 | 4
COc1ccc(NC(=O)Cn2cnc([N+](=O)[O-])n2)c(OC)c1 | 1.4 | nt
Cc1cccc(N2CCN(CCCNC(=O)CCN3C(=O)c4cccnc4Sc4ccccc43)C(C)C2)c1 (stereo not drawn) | nt | -17
COc1cccc(C(=O)NC2=NC(c3ccccc3Cl)CC(=O)N2)c1 (stereo not drawn) | nt | -26
COc1ccc(C(CN)c2c[nH]c3ccccc23)cc1 (stereo not drawn) | -0.8 | 9
COc1cc2c(cc1OC)C(Cc1ccc(O)cc1)N(C)CC2 (stereo not drawn) | 1.4 | 8
COC(=O)NC1(C(F)(F)F)Oc2cc(Cl)c(Cl)cc2O1 | nt | -6
O=C(NNC(=S)Nc1cccc(Cl)c1)c1ccccc1-n1cccc1 | 3.2 | nt
O=C(CSc1nnc(SCC(=O)c2ccccc2)s1)c1ccccc1 | 0.6 | nt
O=C(O)Cn1nnnc1SCC(=O)Nc1ccc(F)cc1F | -2.3 | 1
CC1=C(C)CC(C(=O)Nc2cccc(C)c2C)C(C(=O)O)C1 (stereo not drawn) | -2.6 | -8
COC(=O)c1ccc(CSc2nc(N)c3c4c(sc3n2)CCCC4)o1 | nt | -8
CCOC(=O)C1CCCCN1S(=O)(=O)c1ccc2c(c1)CC(C)N2C(=O)C1CC1 (stereo not drawn) | nt | -2
CC(C)(C)SCC(=O)N1CCN(c2ncc(C(F)(F)F)cc2Cl)CC1 | -3.6 | nt
Cc1cc2ccccc2c(=O)n1CC(=O)NCC(=O)Nc1ccc(F)cc1 | nt | 24
CCOC(=O)c1ccc(NC(=O)CNC(=O)C23CC4CC(CC(C4)C2)C3)cc1 | 2.2 | 1
CCN(C(=S)Nc1cccnc1)c1ccccc1 | -1.4 | 10
CCOC(=O)C1=C(Sc2nnc3nc(C)cc(C)n23)NC(=O)NC1c1ccccc1 (stereo not drawn) | nt | -7
CCCn1c(COc2ccccc2)nc2ccccc21 | nt | -15
c1ccc2[nH]c(SCc3nc4ccccc4o3)nc2c1 | nt | 11
Clc1ccc2nc(NC3=NCN(CCN4CCOCC4)CN3)nc(-c3ccccc3)c2c1 | 0.3 | 12
Cc1cccn2c(=O)c(/C=N/O)c(N3CCCCC3)nc12 | 4.3 | 2
O=C(NCCn1ccc2ccccc21)c1ccc(Br)o1 | nt | -25
Cc1cc(NCc2ccccc2)no1 | 0.3 | nt
CC(C)c1ccc(-n2c(NN)nc3ccccc3c2=O)cc1 | nt | -21
NC(=S)N/N=C/C=C/c1ccccc1 | nt | 24
O=C(NC(CO)Cc1ccccc1)c1ccccc1C(F)(F)F (stereo not drawn) | 0.7 | -17
Cc1ccc2cc(CN(CCN(C)C)C(=O)NC3CCCCC3)c(=O)[nH]c2c1 | -20 | 3
Cc1[nH]c2ccccc2c1C=NCCc1ccncc1 | -0.1 | -13
O=C(CSc1nnc(-c2ccccc2F)n1C1CC1)c1ccc(Cl)s1 | nt | -18
O=C(Nc1cccc(Cl)c1Cl)C1CC(=O)N(Cc2ccccc2)C1 (stereo not drawn) | -1.2 | 0
OCCn1c(SCCSc2nc3ccccc3n2CCO)nc2ccccc21 | -0.6 | nt
COC(=O)c1cc(-c2cccs2)nc2c1c(C)nn2-c1ccccc1 | nt | 0
CCOC(=O)N1CCN(S(=O)(=O)c2ccc(C(=O)Nc3ccc4nc(SC)sc4c3)cc2)CC1 | nt | -11
CC/C(=N\O)c1ccc(CCCCCC(=O)O)s1 | 4.2 | -4
Cc1cc(OC(=O)C2COc3ccccc3O2)cc(C)c1Cl (stereo not drawn) | 1.9 | 8
O=C(O)C1CCN(C(=O)c2cccs2)CC1 | -1.9 | 8
O=C(CSc1nnc(-c2cnccn2)s1)Nc1ccccc1 | -0.7 | nt
CCN1CCCC1CNC(=O)NC1CC(=O)N(c2ccc(C)cc2)C1 (stereo not drawn) | nt | 6
CCOc1cccc(C(=O)Nc2cccc(-c3nc4ccccc4[nH]3)c2C)c1 | nt | 2
NCCCOC1CCCCC1 | nt | 3
Cc1cccc(-n2cnc3sc4c(c3c2=O)CCCC4)c1 | -1.5 | 7
CN1C(=O)NC(c2cccnc2)C(C(=O)c2cccs2)C1(O)C(F)(F)F (stereo not drawn) | 0.5 | -6
Cc1ccc(N=Cc2ccccc2O)c(C(=O)c2ccccc2)c1 | nt | -11
O=C(c1cnc2nc3ccccc3n2c1)c1cc(F)ccc1O | nt | -26
CCCN1CCC(N2CCC(C(=O)OCC)CC2)CC1 | 0.0 | 7
CC(=O)Nc1nonc1N=Cc1ccc(F)cc1 | 0.4 | -13
CC(C)NC(=O)c1c(O)nc2ccccn2c1=O | nt | -17
COC(=O)CCc1c(C)[nH]c(=S)[nH]c1=O | 0.8 | 3
Cc1ccc2nc(NCn3nc(-c4ccccc4)oc3=S)sc2c1 | -0.1 | 4
O=c1ccnc(NCCc2ccccc2)[nH]1 | -0.8 | -1
COc1ccc(C(=O)N(CC#N)CC#N)cc1 | -0.4 | 2
CC(C)(C)c1ccc(/C=C2/NC(=O)N(Cc3ccc(Br)cc3)C2=O)cc1 | 2.3 | 5
CCN(CC)CCSc1ccc(-c2ccccn2)nn1 | nt | 3
CC/C=C\C/C=C\C/C=C\C/C=C\C/C=C\C/C=C\CCC(=O)O | 1.7 | nt
Cc1sc(/N=C/c2c[nH]c3ccccc23)c(C#N)c1C | nt | -20
O=C(c1ccco1)N1CCN(C(c2ccccc2)c2nnnn2Cc2ccccc2)CC1 (stereo not drawn) | -2.5 | -6
CSc1nnc(Cc2ccccc2)c(=O)[nH]1 | -1.4 | 9
CCCn1c(-c2ccccc2)nc2ccccc21 | nt | -6
COc1ccccc1NCC(=O)NN | -2.2 | 19

Part of the list above, set out differently:
> O=C(c1ccco1)N1CCN(C(c2ccccc2)c2nnnn2Cc2ccccc2)CC1 (stereo not drawn)
- MgrA-DNA mod = -2.5
- S aureus helic = -6

> CSc1nnc(Cc2ccccc2)c(=O)[nH]1
- MgrA-DNA mod = -1.4
- S aureus helic = 9

> CCCn1c(-c2ccccc2)nc2ccccc21
- MgrA-DNA mod = nt
- S aureus helic = -6

Next structures.
smiles | MgrA-DNA mod | S aureus helic
CCOC(=O)c1ccc(OCC(=O)OC)cc1 | 0.4 | 19
CSC(=CC(=O)c1cccs1)SC | 1.2 | nt
COc1cccc(N/C=C(\C#N)c2nc(-c3ccccc3)cs2)c1 | nt | -8
N#Cc1ccc(CN2C(=O)CC3(CCCC3)C2=O)cc1 | nt | 10
OC1(C(F)(F)F)CC(c2nccs2)=NN1 (stereo not drawn) | -0.9 | nt
CN(C)C(=O)CSc1nc2ccc(Cl)cc2o1 | 0.8 | nt
N#Cc1c(NC(=O)C#Cc2ccccc2)sc2c1CCC2 | 9.1 | 8
CN(C(=O)Cn1ncc2c([nH]c3ccccc32)c1=O)c1ccccc1 | nt | -12
COc1ccc(CN(C)C(=O)COc2ccc(-c3nnco3)cc2)c(OC)c1OC | nt | 8
COc1cc(Cl)c(NC(=O)CC(C)n2nc(C)cc2C)c(OC)c1 (stereo not drawn) | nt | 1
COc1ccc2nc(-c3ccccc3)cc(C(=O)O)c2c1 | -0.9 | 12
OCc1ccc(O)c2ncccc12 | nt | 11
c1ccc(-c2cn3ncsc3n2)cc1 | nt | 15
COCCn1c(C2CC(=O)N(CC(C)C)C2)nc2ccccc21 (stereo not drawn) | nt | 3
COc1ccccc1OCC#CCNCC1CCCO1 (stereo not drawn) | -0.8 | -13
CCC(C)OC(=O)COc1ccc2c(=O)c(Oc3ccccc3Cl)coc2c1 (stereo not drawn) | 0.8 | 7
S=C1NCCCN1C1CCCCC1 | 7.0 | nt
COc1ccc(CN(C)C(=O)COc2ncnc3ccccc23)c(OC)c1OC | nt | -4
O=C(c1c2c(nc3ccccc13)CCCC2)N1CCOCC1 | nt | 22
COc1ccc(/C(C#N)=C/c2cccc(O)c2)cc1OC | 1.4 | 11
CCN(CC)Cc1c(O)ccc2cc(-c3nc4ccccc4[nH]3)c(=O)oc12 | 8.9 | -144
CC12CCC(=O)C=C1CCC1(C)C2(C)CCC2(C)C(C(=O)CO)CCC21C (stereo not drawn) | -2.6 | 3
CCOc1cc2c(cc1/C=C(\C#N)c1ccc(C(F)(F)F)cc1)OCO2 | 1.1 | -2
Cc1cc(NC(c2ccccn2)c2c(C)[nH]c3ccccc23)no1 (stereo not drawn) | nt | 3
CCNC(=O)/C(=N\O)c1ccccc1 | 2.3 | 0
CCc1ccc(NC(=O)CCS(=O)(=O)c2ccc(Br)cc2)cc1 | 1.7 | 3
N#CCCn1nc(-c2ccccc2)c2c1Nc1ccccc1NC2c1ccc(F)cc1 (stereo not drawn) | nt | 3
Oc1ccc(/C=N/c2nccs2)cc1 | 3.4 | 4
CCOC(=O)C(Cc1ccccc1)C(=O)N1CCCc2ccccc21 (stereo not drawn) | nt | 11
NCc1ccc(CN2CCCCCC2)cc1 | 3.1 | 15
O=C(COC(=O)c1ccc(N2CCCC2=O)cc1)c1ccc(OC(F)F)cc1 | nt | -5
O=C(COc1ccccc1)N(Cc1ccccc1)c1ccccn1 | -0.2 | 1
CCOC(=O)N1CCN(c2nc(C)c3c(n2)CC(c2ccco2)CC3=O)CC1 (stereo not drawn) | 5.6 | 3
CC(C)[C@H](NC(=O)c1cccc(S(=O)(=O)N2CCCC2)c1)c1nc2ccccc2[nH]1 | nt | -13
